Screening results (PubChem)
ugtP null kill = growth inhibition of S. aureus ugtP deletion strain; 0.54% of 330,000 active; AID 1259309; growth inhibition, % (concentration not given with the values); S. aureus RN4220 ugtP deletion, OD600 growth, 16 h; some inactives read as strong as hits;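 active means z-score under -3 and OD600 up to 0.15 on both plates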;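 further: plate controls were untreated wells for no effect and antibiotic for full effect; wells of about 80 µL received 100 nL stock; the first replicate is given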
Mtb hypoxia rep = Mtb hypoxia fluorescent reporter inhibition. 0.1% of 300,000 active. fluorescence inhibition, % (test concentration not listed). M. tuberculosis hypoxia-regulated fluorescent reporter, fluorescence;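 active means 35 to 45% if threefold the growth effect, above 45% if 1.5-fold the growth effect; inactive means the rest, general growth blockers included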;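 further: wells of about 50 µL received 100 nL stock; 0% = vehicle wells and 100% = reference inhibitor wells; whole bacteria with a GFP reporter of the hypoxia response; strong numbers were not always called active; many hits fall short of the cut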
Bead autofluor = counter-screen for toxin protease inhibitors: compound fluorescence | compound autofluorescence counterscreen, microsphere flow cytometry; active compounds read high | fluorescence intensity (concentration not given with the values) | 3.1% of 360,000 active | AID 624483;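 active means at least 3 SD above the mean of all compounds, about 16000 in these data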;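 further: 100 nL of 1 mM stock went into each well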
PrP UTR inh = suppresses PrP 5' UTR mRNA reporter expression. 0.35% of 340,000 active. inhibition, % (no concentration beside the values). cell-based PrP 5' UTR mRNA reporter, plate reader;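 active means every replicate at 50% or more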;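 further: 0 = median of the neutral control wells; tested in H4 reporter cells; numbers are from one replicate; inactives centre near -14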
BJeLR lethal = BJeLR cell viability loss; 0.17% of 300,000 active; inhibition, % (test concentration not listed); BJeLR (HRASV12) viability, CellTiter-Glo ATP luminescence, 48 h; reference of the scale not given here;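 active means replicate mean above 50%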;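 further: 50 nL library stock added to about 25 µL; numbers are from one replicate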
Sa RN4220 lethal = S. aureus RN4220 growth inhibition; OD600, 16 h; 0.33% of 330,000 active; inhibition, % (test concentration not listed);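 active means z-score of -3 or lower and OD600 up to 0.18 on both plates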;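 further: plate controls were untreated cells for no effect and reference antibiotic for full effect; stock transfer was 100 nL into about 80 µL; one replicate is shown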
Mtb hypoxia rep growth = recorded beside Mtb hypoxia rep, whose call it bears; growth inhibition, %; measured here: M. tuberculosis growth (absorbance);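 0% = vehicle and 100% = reference antibiotic; read after six days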
Numbers without * were called inactive; · = not tested or not shown.

Field names: A = ugtP null kill; B = Mtb hypoxia rep; C = Mtb hypoxia rep growth; D = Bead autofluor; E = PrP UTR inh; F = BJeLR lethal; G = Sa RN4220 lethal
CS(=O)(=O)N(CC(=O)NCc1ccncc1)c1ccc(Cl)c(Cl)c1
  A: 9.0	B: 15.5	C: 1.3	D: 8355	E: -35.6	F: 5.3	G: 3.6
Cc1ccc(NC(=O)CN(C)C(=O)COC(=O)c2ccc(NC(=O)CC#N)cc2)cc1
  A: 1.1	B: 5.6	C: 5.7	D: 4299	E: -13.3	F: ·	G: 1.6
CCc1ccc(NC(=O)CN2CCC(C(=O)c3ccc(OC)cc3)CC2)cc1
  A: 11.2	B: 3.5	C: -4.8	D: 3435	E: -2.8	F: -0.8	G: -5.5
CN(C(=O)c1cc2ccccc2o1)c1c(N)n(Cc2ccccc2)c(=O)[nH]c1=O
  A: 1.5	B: 24.3	C: 5.2	D: 2947	E: -19.6	F: ·	G: -0.9
NS(=O)(=O)c1cccc(NC(=O)Cn2cc(C(F)(F)F)cc(Cl)c2=O)c1
  A: 2.6	B: 4.7	C: 7.6	D: 4935	E: -21.9	F: 6.4	G: 11.2
O=S(=O)(c1cccc(-c2n[nH]c(=S)o2)c1)N1CCOCC1
  A: 2.7	B: 18.5	C: 2.6	D: 4707	E: -11.7	F: -16.6	G: 4.0
CC1CCCCC1NC(=O)CCCCCn1c(=S)[nH]c2ccsc2c1=O (stereo unspecified)
  A: -2.2	B: -3.4	C: 10.8	D: 5831	E: -8.1	F: -3.0	G: 7.2
CN(C)CCNC(=O)CNC(=S)N(Cc1ccccc1)Cc1cccnc1
  A: 4.6	B: 10.1	C: 1.0	D: 9345	E: -5.1	F: 0.8	G: 0.8
Cc1nc2ccc(NC(=O)c3ccc(F)c(S(=O)(=O)N4CCOCC4)c3)cc2s1
  A: -2.3	B: ·	C: ·	D: 2452	E: -18.5	F: 8.7	G: 2.4
COc1cc(SC)ccc1C(=O)OC(C)C(=O)Nc1ccc(NC(C)=O)cc1 (stereo unspecified)
  A: 1.9	B: 14.4	C: 9.6	D: 6375	E: -16.8	F: -12.1	G: -0.4
CN(C)CCCNCC(=O)c1c(-c2ccccc2)n(C)c2ccccc12
  A: -5.9	B: 8.9	C: 11.8	D: 4005	E: 5.4	F: 1.9	G: 1.3
O=C(Nc1ccccc1)c1ccc(-c2ccccc2Cl)o1
  A: 15.5	B: 5.0	C: 5.4	D: 2850	E: -50.4	F: 1.1	G: 30.0
CCc1ccc(C(=O)N/N=C(\C)c2cccnc2)s1
  A: ·	B: ·	C: ·	D: 6513	E: -23.0	F: -2.5	G: ·
Cc1cc[n+](-c2nc3ccccc3nc2C(=C=[N-])C#N)cc1
  A: -0.7	B: -2.0	C: 1.3	D: 8976	E: -25.9	F: -4.2	G: 0.5
O=C1C=C(c2ccc(CO)cc2)CC(c2ccc3c(c2)OCO3)C1 (stereo unspecified)
  A: 4.2	B: 19.2	C: 11.9	D: ·	E: ·	F: ·	G: 10.6
O=C1CCN(CCc2ccccc2)CCN1[C@H](CSc1ccccc1)Cc1ccccc1
  A: ·	B: ·	C: ·	D: 2870	E: -30.4	F: -3.5	G: ·
C/C(=N/Nc1nc(C)c(C)s1)c1cccc([N+](=O)[O-])c1
  A: ·	B: ·	C: ·	D: 2859	E: -24.6	F: -3.8	G: ·
Cc1ccc(S(=O)(=O)CC(=O)c2ccc3c(c2)OCCO3)cc1
  A: 13.5	B: -3.1	C: -2.2	D: 3916	E: -37.2	F: 3.4	G: 3.9
CC1=C(C(=O)Nc2cc(C(=O)NCCCOC(C)C)ccc2C)SCCO1
  A: 18.8	B: 9.6	C: 13.7	D: 3624	E: 0.5	F: 0.9	G: 3.1
CCOc1ccc(OCC(=O)OCC(=O)NCC2CCCO2)cc1 (stereo unspecified)
  A: 7.8	B: 10.6	C: 7.5	D: 8441	E: -29.1	F: ·	G: -0.5
NCCCCC1NC(=O)c2cc([N+](=O)[O-])cc(I)c2SCC(C(=O)NCC(N)=O)NC(=O)CNC1=O (stereo unspecified)
  A: -0.1	B: 4.2	C: 0.3	D: ·	E: ·	F: ·	G: 6.3
Cc1cccc(N2CCN(C(=O)Cn3cccc3C(=O)c3ccccc3)CC2)c1C
  A: 11.4	B: 6.9	C: -0.6	D: 9447	E: -4.2	F: -2.1	G: -0.1
COc1cccc(NC(=O)CSc2nnc(-c3ccc(C)cc3)o2)c1
  A: 3.6	B: ·	C: ·	D: 6424	E: -83.5	F: 2.8	G: 3.3
CSc1ccccc1NC(=O)CN1CCN(c2ccccn2)CC1
  A: 16.0	B: 13.6	C: 8.5	D: 3431	E: ·	F: -4.4	G: 4.9
CCOC(=O)CC(=O)CSc1ccc2nnc(-c3ccc(F)cc3)n2n1
  A: -3.4	B: 0.9	C: 7.9	D: 10492	E: ·	F: -3.9	G: -3.6

Full records, looked up by structure.
O=C1CCN(CCc2ccccc2)CCN1[C@H](CSc1ccccc1)Cc1ccccc1 is entered as ugtP null kill: ·; Mtb hypoxia rep: ·; Mtb hypoxia rep growth: ·; Bead autofluor: 2870; PrP UTR inh: -30.4; BJeLR lethal: -3.5; Sa RN4220 lethal: ·
COc1cccc(NC(=O)CSc2nnc(-c3ccc(C)cc3)o2)c1 is entered as ugtP null kill: 3.6; Mtb hypoxia rep: ·; Mtb hypoxia rep growth: ·; Bead autofluor: 6424; PrP UTR inh: -83.5; BJeLR lethal: 2.8; Sa RN4220 lethal: 3.3
CN(C)CCNC(=O)CNC(=S)N(Cc1ccccc1)Cc1cccnc1 is entered as ugtP null kill: 4.6; Mtb hypoxia rep: 10.1; Mtb hypoxia rep growth: 1.0; Bead autofluor: 9345; PrP UTR inh: -5.1; BJeLR lethal: 0.8; Sa RN4220 lethal: 0.8

Going on with the list.
Field names: A = ugtP null kill; B = Mtb hypoxia rep; C = Mtb hypoxia rep growth; D = Bead autofluor; E = PrP UTR inh; F = BJeLR lethal; G = Sa RN4220 lethal
O=C(O)c1ccc(Nc2c3ccccc3nc3ccccc23)cc1
  A: 5.8	B: 5.7	C: 7.0	D: 3531	E: -4.7	F: -3.3	G: -1.6
CCN(CC)CCCn1c(C)cc2c(c1=O)C(c1ccc(OC)c(OC)c1OC)C(C#N)=C(N)O2 (stereo unspecified)
  A: 3.2	B: 11.3	C: 6.0	D: 3301	E: -3.1	F: -0.8	G: 3.8
O=C(N/N=C/c1ccccc1)c1ccc(N2CCCC2=O)cc1
  A: ·	B: ·	C: ·	D: 6605	E: -13.0	F: 0.4	G: ·
Cn1c(=O)c2c(nc(N3CCN(Cc4ccccc4)CC3)n2CCCc2ccccc2)n(C)c1=O
  A: 41.7	B: 2.7	C: 6.1	D: 3169	E: -16.7	F: -4.5	G: -8.3
CCOc1ccc(NC(=O)C2CCCN2S(=O)(=O)c2ccc(OCC)cc2)cc1 (stereo unspecified)
  A: 5.0	B: 15.3	C: 26.6	D: 3776	E: -17.1	F: -7.6	G: 6.2
CCCC(=O)Nc1ccc(-c2csc(-c3cccnc3)n2)cc1
  A: -2.9	B: -6.2	C: 9.4	D: 4000	E: -9.9	F: 0.9	G: 0.9
CCC1CCCCN1C(=O)CSc1nnc(-c2cccc(Cl)c2)o1 (stereo unspecified)
  A: 6.7	B: ·	C: ·	D: 5527	E: -22.6	F: -1.2	G: 9.7
O=C1Nc2ccccc2/C1=N\N=C\c1ccc(O)c(O)c1
  A: ·	B: ·	C: ·	D: 4299	E: 1.5	F: 18.6	G: ·
Cc1ccc(S(=O)(=O)N2CCC[C@H]2C(=O)NC2=NCCS2)cc1
  A: -2.6	B: 5.2	C: 7.5	D: 3832	E: -15.0	F: ·	G: 0.1
CCOC(=O)C1(Cc2ccc(OC)cc2)CCN(C(=O)CN2CCOC2=O)CC1
  A: 2.9	B: 9.1	C: 14.0	D: 4812	E: -30.3	F: -3.7	G: 3.3
COc1ccccc1N1CCN(C(=O)/C=C/c2c(Cl)nc3ccccn23)CC1
  A: -10.1	B: -7.8	C: -7.8	D: 1939	E: 9.1	F: -9.0	G: -0.1
O=C(c1cccn2c(=O)c3cc(Cl)ccc3nc12)N1CCN(Cc2ccc3c(c2)OCO3)CC1
  A: -4.1	B: -1.7	C: 14.4	D: 16508*	E: -20.0	F: -17.5	G: 0.2
COCCCN1C(=O)c2ccc(C(=O)NCc3ccccn3)cc2C1=O
  A: 1.6	B: -1.4	C: 2.0	D: 5142	E: 0.5	F: 1.2	G: 0.2
O=C(CC1SC(=O)N(Cc2ccccc2Cl)C1=O)Nc1nccs1 (stereo unspecified)
  A: 12.8	B: 2.5	C: 6.4	D: 4470	E: -15.7	F: -0.6	G: 4.5
Cc1ccc(CN2C(=O)CCC2C(=O)NCC2CCCO2)cc1 (stereo unspecified)
  A: -3.8	B: 13.5	C: 10.4	D: 3065	E: -24.8	F: 8.7	G: -13.4
COc1ccccc1N1CCN(C(=O)CCn2c(=O)[nH]c3ccsc3c2=O)CC1
  A: 0.2	B: 6.9	C: 7.6	D: 3970	E: -23.6	F: -17.9	G: 7.2
O=C(COc1coc(CN2CCc3ccccc3C2)cc1=O)Nc1ccc(F)cc1F
  A: 13.5	B: 3.4	C: 8.8	D: 5436	E: -15.8	F: 3.3	G: -6.2
O=C(OCCc1cc2ccccc2c(=O)o1)c1ccco1
  A: 1.9	B: -0.3	C: 1.7	D: 2867	E: -51.4	F: ·	G: 6.3
Cn1c(SCc2ccc(C#N)cc2)nnc1-c1ccccc1
  A: -8.7	B: -3.4	C: 5.5	D: 3144	E: -21.3	F: -3.0	G: 4.1
Cc1cc(C)n(-c2nnc(C)n2NS(C)(=O)=O)n1
  A: 1.1	B: 10.8	C: 13.4	D: 4084	E: -6.5	F: -13.6	G: 2.1
Cc1cc(C)n(CC(=O)c2ccc(Br)cc2)c(=O)c1C#N
  A: 8.4	B: 3.5	C: 6.8	D: 9892	E: -33.6	F: 1.8	G: 5.4
COc1ccc(C(C)=O)cc1CSc1nnc(-c2ccc(Cl)cc2)n1-c1ccccc1
  A: 3.9	B: ·	C: ·	D: 3403	E: -16.5	F: -3.5	G: 9.9
Cc1nnc(SCc2nc(N)nc(Nc3ccccc3)n2)s1
  A: 7.5	B: 8.9	C: 3.9	D: 4024	E: -24.7	F: 3.4	G: 9.3
Cc1ccc(/C(N)=N/OC(=O)c2cccc(Cn3cc(C(F)(F)F)ccc3=O)c2)cc1
  A: 0.7	B: -8.7	C: -6.9	D: 5866	E: -3.5	F: -2.0	G: -0.2
CC(C(=O)Nc1ccc(Br)cc1C(=O)c1ccccc1)N1CCCCC1 (stereo unspecified)
  A: 11.8	B: 4.7	C: 2.3	D: 19761*	E: -23.1	F: 8.8	G: -0.8

New compounds follow:
Field names: A = ugtP null kill; B = Mtb hypoxia rep; C = Mtb hypoxia rep growth; D = Bead autofluor; E = PrP UTR inh; F = BJeLR lethal; G = Sa RN4220 lethal
C/C(=N/NS(=O)(=O)c1ccc(C)cc1)c1c[nH]c2ccccc12
  A: ·	B: ·	C: ·	D: 5932	E: -5.2	F: -2.0	G: ·
COc1cccc(CNc2cccc3cccnc23)c1O
  A: 9.8	B: -0.5	C: 8.6	D: 16704*	E: -33.5	F: -9.3	G: 4.6
Cc1ccc(CCNC(=O)C23CN(Cc4ccccc4)CC2C(c2ccc([N+](=O)[O-])cc2)=NO3)cc1 (stereo unspecified)
  A: -26.1	B: 12.0	C: 10.7	D: 3865	E: -8.7	F: -8.9	G: -4.7
O=C(O)CC1c2cc(C(F)(F)F)ccc2S(=O)(=O)N1C1CCN(Cc2ccccc2)CC1 (stereo unspecified)
  A: 1.9	B: 12.6	C: -8.9	D: ·	E: ·	F: ·	G: 7.4
CCCC(=O)Nc1ccc2c(c1)nc1n2CCN(CCOC)C1
  A: -4.9	B: 0.2	C: -0.8	D: 4165	E: -20.0	F: 5.3	G: -1.7
CCC(Sc1nc2ccsc2c(=O)n1-c1ccc(Cl)c(C)c1)C(=O)NCc1ccco1 (stereo unspecified)
  A: 4.5	B: 2.1	C: 15.6	D: 8455	E: -26.5	F: 2.8	G: -0.5
O=C(CCN1C(=O)c2ccccc2C1=O)C1=NN[C@@H]2C(=O)N(c3cccc(F)c3)C(=O)[C@H]12
  A: 0.9	B: 9.1	C: 7.9	D: 2144	E: -11.8	F: -7.8	G: 1.3
COc1cccc(CNC(=O)C(C)n2nc(C)n3c(cc4occc43)c2=O)c1 (stereo unspecified)
  A: -1.5	B: 11.5	C: 4.8	D: 5989	E: -7.4	F: 13.5	G: 8.8

Copied from the list.
`CCC(Sc1nc2ccsc2c(=O)n1-c1ccc(Cl)c(C)c1)C(=O)NCc1ccco1` (stereo unspecified) in Bead autofluor = 8455
`CCCC(=O)Nc1ccc2c(c1)nc1n2CCN(CCOC)C1` in BJeLR lethal = 5.3
`COc1cccc(CNC(=O)C(C)n2nc(C)n3c(cc4occc43)c2=O)c1` (stereo unspecified) in ugtP null kill = -1.5
